# Vaccinia stage – blocks a specific stage of Vaccinia orthopoxvirus infection, primary screen, cell-based, single point | Vaccinia-infected cells, mCherry/Venus stage reporter fluorescence; active compounds read low; some inactives read as strong as hits | activity change (mCherry), % (test concentration not listed) | 89,000 compounds, 0.01% hits | AID 1053133, 2014;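 active = mCherry past -33% and 40 or more points under the early reporter, replicates agreeing; inconclusive = past -33% without that gap or agreement; tested in A549 cells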;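 note: scaled between vehicle wells and reference inhibitor wells; 23 nL library stock went into each well; one replicate is shown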
# Vaccinia stage Venus – further read-out of Vaccinia stage, marked with its call; activity change (Venus), %; measured here: Venus reporter, other viral stage;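 negative = less Venus signal; first of two replicates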
# * hit, by the source's call; ? = inconclusive; nt = no result given; & = joins results of further samples. These rows are one share of the data; rates above refer to the full screens.
SMILES,Vaccinia stage,Vaccinia stage Venus
C[C@H](NC(=O)C[C@H]1C[C@@H]2c3cc(NC(=O)CN(C)C)ccc3O[C@@H]2[C@@H](CO)O1)c1ccccc1,15.9,4.5
CC(C)NC(=O)N(C)C[C@@H]1Oc2ccc(NC(=O)CCC(F)(F)F)cc2CC(=O)N([C@H](C)CO)C[C@@H]1C,14.9,5.5
COc1ccc(S(=O)(=O)Nc2ccc3c(c2)C(=O)N([C@@H](C)CO)C[C@H](C)[C@@H](CN(C)S(=O)(=O)c2cn(C)cn2)O3)cc1,0.7,-3.7
C[C@H](CO)N1C[C@H](C)[C@H](CN(C)Cc2ccc(Oc3ccccc3)cc2)OCc2ccccc2-c2ccccc2C1=O,?,nt
C[C@H]1CN([C@@H](C)CO)C(=O)c2cc(NC(=O)c3ccncc3)ccc2O[C@@H]1CN(C)S(=O)(=O)c1cccs1,10.1,9.4
CN1C(=O)c2cc(NC(=O)C3CCOCC3)ccc2OC[C@@H]2O[C@H](CC(=O)NCc3ccccc3F)CC[C@H]21,11.2,13.4
CCCC#Cc1ccc([C@H]2[C@@H](CO)N(C(C)=O)[C@H]2CNC(=O)C2CCC2)cc1,-11.7,0.7
CO[C@@H]1CN(C)C(=O)c2ccc(NS(=O)(=O)c3ccc(F)cc3)cc2OC[C@@H](C)N(C)C[C@H]1C,21.1,15.2
CS(=O)(=O)Nc1ccc2c(c1)[C@@H]1C[C@@H](CC(=O)NCc3ccc(Cl)cc3)O[C@H](CO)[C@@H]1O2,1.8,4.6
C[C@@H]1CN([C@H](C)CO)C(=O)c2cccc(N(C)C)c2O[C@H]1CN(C)CC1CC1,7.4,7.9
C[C@@H]1CN([C@@H](C)CO)C(=O)Cc2cc(NS(C)(=O)=O)ccc2O[C@@H]1CN(C)Cc1ccc(C(=O)O)cc1,19.7,12.3
C[C@H]1CN([C@@H](C)CO)C(=O)c2cc(-c3cccc(F)c3)cnc2O[C@H]1CN(C)C(=O)C1CCCCC1,-5.1,-3.1
O=C(NCCc1ccccc1)[C@@H]1[C@@H](CO)[C@@H]2Cn3c(ccc(-c4cccc(F)c4)c3=O)[C@H]1N2,-0.6,-5.4
CC=Cc1ccc2n(c1=O)C[C@@H]1[C@@H](CO)[C@H](C(=O)N3CCCCC3)N(CC3CC3)[C@H]21 (mixture of isomers),-1.1,-0.8
C[C@H](CO)N1C[C@H](C)[C@@H](CN(C)S(=O)(=O)c2ccccc2)Oc2c(NC(=O)Nc3cccc4ccccc34)cccc2C1=O,5.0,6.3
C[C@H](CO)N1C[C@H](C)[C@H](CN(C)C(=O)C2CC2)Oc2cc(C#CC3CCCC3)ccc2S1(=O)=O,-29.4,-24.5
O=C(NCc1ccc(F)cc1)[C@H]1C[C@H]2C(=O)N3CCC[C@H]3C(=O)N2[C@H]1c1cccc(OCCO)c1,12.7,4.9
Cc1noc(C)c1NC(=O)N(C)C[C@@H]1Oc2c(NC(=O)c3cnccn3)cccc2C(=O)N([C@@H](C)CO)C[C@H]1C,18.5,16.4
COc1ccc(-c2ccc([C@@H]3[C@H](C#N)N(C(=O)C4CCC4)[C@H]3CO)cc2)cc1,-12.9,-9.3
C[C@H](CO)N1C[C@H](C)[C@@H](CN(C)Cc2ccc(F)cc2)Oc2ncc(C3=CCCC3)cc2C1=O,?,nt
COc1ccc(NC(=O)N[C@@H]2CC[C@@H](CCn3cc(C4(O)CCCC4)nn3)O[C@H]2CO)cc1,5.8,5.6
CS(=O)(=O)N1[C@@H]2c3ccc(-c4cccc(F)c4)c(=O)n3C[C@H]1[C@H](CO)[C@H]2C(=O)N1CCCCC1,6.3,5.1
CCc1sc(N2[C@H](C#N)[C@H](c3ccccc3-c3ccc(F)cc3)[C@H]2CO)nc1C,13.9,14.4
C[C@@H]1CN([C@H](C)CO)C(=O)c2cc(-c3cccc(F)c3)cnc2O[C@@H]1CN(C)C(=O)c1cccc(F)c1,12.2,6.7
COc1ccc2c3c([nH]c2c1)[C@@H](CO)N(C(=O)c1ccc(F)cc1)CC31CN(C(=O)CC2CC2)C1,22.7,13.1
Cc1ccc(S(=O)(=O)N(C)C[C@H]2OCc3ccccc3-c3ccccc3C(=O)N([C@@H](C)CO)C[C@H]2C)cc1,-22.0,-30.7
C[C@H](CO)N1C[C@H](C)[C@@H](CN(C)CC2CCCCC2)OCCCC[C@H](C)Oc2ccc(NS(=O)(=O)c3cccs3)cc2C1=O,-28.6,-19.7
CCC(=O)N1CC[C@H]2[C@H](CO)Nc3ccc(-c4ccccc4)cc3[C@H]21,?,nt
O=C(C[C@@H]1C=C[C@H](NC(=O)Nc2ccccc2)[C@@H](CO)O1)NCc1ccccn1,6.7,7.3
CC(=O)N[C@@H]1C=C[C@H](CC(=O)NCc2ccc(Cl)cc2)O[C@H]1CO,10.1,6.1
C[C@H](CO)N1C[C@H](C)[C@H](CN(C)C(=O)Nc2cc(F)ccc2F)Oc2cc(-c3cccc(C#N)c3)ccc2S1(=O)=O,19.8,4.4
CN(C)CC(=O)N1[C@H](C#N)[C@@H](c2ccccc2-c2ccccc2F)[C@H]1CO,6.8,-4.5
C[C@@H]1CN([C@@H](C)CO)C(=O)Cc2cc(NC(=O)CCN3CCOCC3)ccc2O[C@@H]1CN(C)C,12.6,1.6
C[C@@H]1CCCCO[C@@H](CN(C)C(=O)Nc2cccc3ccccc23)[C@H](C)CN([C@@H](C)CO)C(=O)c2cc(NC(=O)Nc3ccc4c(c3)OCO4)ccc2O1,27.7,23.6
CC(C)NC(=O)Nc1ccc2c(c1)C(=O)N([C@@H](C)CO)C[C@@H](C)[C@@H](CN(C)Cc1ccccc1)OCCCC[C@H](C)O2,-0.3,-0.3
Cc1noc(C)c1S(=O)(=O)Nc1ccc2c(c1)C(=O)N([C@@H](C)CO)C[C@H](C)[C@H](CN(C)C(=O)C1CCCCC1)OCCCC[C@@H](C)O2,-12.9,-12.7
C[C@@H]1CN([C@H](C)CO)C(=O)c2cc(NC(=O)NC3CCCCC3)ccc2O[C@@H]1CN(C)C(=O)NC1CCCCC1,6.0,5.1
CCCNC(=O)Nc1ccc2c(c1)OC[C@@H](C)N(C(=O)C1CC1)C[C@H](C)[C@H](OC)CN(C)C2=O,5.5,5.8
C[C@H]1CN([C@@H](C)CO)C(=O)c2cccc(NC(=O)Nc3ccc4c(c3)OCO4)c2O[C@H]1CN(C)C(=O)Nc1ccc(C(F)(F)F)cc1,-13.6,-10.0
Cc1noc(C)c1NC(=O)N(C)C[C@@H]1OCCCC[C@H](C)Oc2ccc(NC(=O)Cc3ccccc3)cc2C(=O)N([C@H](C)CO)C[C@H]1C,15.1,4.5
C[C@@H]1CN([C@H](C)CO)C(=O)c2cc(NC(=O)Nc3cccc4ccccc34)ccc2O[C@@H]1CN(C)Cc1ccc(Cl)c(Cl)c1,-13.4,-8.9
C[C@@H](O)C#Cc1ccc2c(c1)O[C@H](CN(C)C)[C@@H](C)CN([C@@H](C)CO)S2(=O)=O,26.8,1.8
CO[C@H](C(=O)N(C)C[C@H]1OCc2ccccc2-c2c(n(C)c3ccccc23)C(=O)N([C@H](C)CO)C[C@H]1C)c1ccccc1,-31.8,-26.3
CC(C)CC#Cc1cnc2c(c1)C(=O)N([C@@H](C)CO)C[C@@H](C)[C@H](CN(C)C(=O)Nc1cccc(F)c1)O2,-18.6,-19.2
C[C@@H]1CN([C@@H](C)CO)C(=O)c2cc(NS(=O)(=O)c3ccccc3)ccc2O[C@@H](C)CCCCO[C@@H]1CN(C)C(=O)CCCN(C)C,20.7,6.2
O=C(NCc1ccccc1)[C@@H]1[C@@H](CO)[C@@H]2Cn3c(ccc(/C=C/c4ccccc4)c3=O)[C@H]1N2CC1CC1,-20.6,-8.3
O=C(C1CCCC1)N1[C@@H](CO)[C@@H]2c3ccccc3N(S(=O)(=O)c3ccccc3)C[C@@H]21,-5.3,-3.2
COc1ccc(S(=O)(=O)Nc2ccc3c(c2)CC(=O)N([C@@H](C)CO)C[C@H](C)[C@@H](CN(C)Cc2ccc(C(F)(F)F)cc2)O3)cc1,-31.8,-11.4
Cc1noc(C)c1NC(=O)NCC[C@@H]1CC[C@H](NC(=O)Nc2cccc(F)c2)[C@H](CO)O1,5.8,14.3
COc1ccc(S(=O)(=O)Nc2ccc3c(c2)C(=O)N([C@@H](C)CO)C[C@H](C)[C@H](CN(C)C(=O)NC(C)C)OCCCC[C@@H](C)O3)cc1,14.5,9.8
C[C@H](CO)N1C[C@H](C)[C@@H](CN(C)C(=O)c2ccccc2)OCCCC[C@H](C)Oc2ccc(NC(=O)c3ccccc3)cc2C1=O,-6.0,-12.1
C[C@@H]1CN([C@H](C)CO)C(=O)c2cc(C#CC3CCCCC3)cnc2O[C@H]1CN(C)S(C)(=O)=O,-8.0,-9.3
N#Cc1ccc(-c2ccc3c(c2)[C@@H]2[C@@H](CCN2C(=O)C2CC2)[C@H](CO)N3)cc1,9.3,3.3
CC(=O)N(C)C[C@@H]1Oc2cc(Br)ccc2S(=O)(=O)N([C@H](C)CO)C[C@@H]1C,16.7&18.5,5.4&10.5
CC(=O)N(C)C[C@H]1Oc2ncc(/C=C/c3ccccc3)cc2C(=O)N([C@H](C)CO)C[C@@H]1C,18.8,9.2
CC(C)CC#Cc1cnc2c(c1)C(=O)N([C@@H](C)CO)C[C@H](C)[C@H](CN(C)C(=O)Cc1cccnc1)O2,0.9,1.4
O=C(C[C@@H]1CC[C@H]2[C@@H](COC[C@@H](O)CN2S(=O)(=O)c2cccc(F)c2)O1)Nc1ccc(-c2ccccc2)cc1,?,nt
COc1cccc(S(=O)(=O)N2CC[C@@H]3[C@H]2c2cc(C#Cc4ccccc4)ccc2N[C@@H]3CO)c1,21.9,3.9
O=C(C[C@@H]1C[C@H]2c3cc(NC(=O)c4cccnc4)ccc3O[C@H]2[C@H](CO)O1)NCc1ccccc1,14.2,11.4
COc1ccc(NC(=O)N[C@@H]2CC[C@H](CCNC(=O)c3ccccc3F)O[C@H]2CO)cc1,-7.1,2.1

# Profiles from above.
# `CC(C)CC#Cc1cnc2c(c1)C(=O)N([C@@H](C)CO)C[C@H](C)[C@H](CN(C)C(=O)Cc1cccnc1)O2` is listed with Vaccinia stage: 0.9; Vaccinia stage Venus: 1.4
# `N#Cc1ccc(-c2ccc3c(c2)[C@@H]2[C@@H](CCN2C(=O)C2CC2)[C@H](CO)N3)cc1` is listed with Vaccinia stage: 9.3; Vaccinia stage Venus: 3.3

# Arranged by formula weight (ascending): four of the compounds above
SMILES,Vaccinia stage,Vaccinia stage Venus
CCCNC(=O)Nc1ccc2c(c1)OC[C@@H](C)N(C(=O)C1CC1)C[C@H](C)[C@H](OC)CN(C)C2=O,5.5,5.8
CO[C@H](C(=O)N(C)C[C@H]1OCc2ccccc2-c2c(n(C)c3ccccc23)C(=O)N([C@H](C)CO)C[C@H]1C)c1ccccc1,-31.8,-26.3
C[C@@H]1CN([C@H](C)CO)C(=O)c2cc(NC(=O)Nc3cccc4ccccc34)ccc2O[C@@H]1CN(C)Cc1ccc(Cl)c(Cl)c1,-13.4,-8.9
C[C@@H]1CCCCO[C@@H](CN(C)C(=O)Nc2cccc3ccccc23)[C@H](C)CN([C@@H](C)CO)C(=O)c2cc(NC(=O)Nc3ccc4c(c3)OCO4)ccc2O1,27.7,23.6

# (next part)
SMILES,Vaccinia stage,Vaccinia stage Venus
CC(C)NC(=O)Nc1ccc2c(c1)C(=O)N([C@@H](C)CO)C[C@H](C)[C@@H](CN(C)Cc1ccc(C(=O)O)cc1)OCCCC[C@@H](C)O2,28.9,10.6
C[C@H](CO)N1C[C@H](C)[C@H](CN(C)C(=O)C2CCOCC2)Oc2ncc(-c3ccncc3)cc2C1=O,19.3,12.2
O=C(NCC[C@H]1CC[C@H](NC(=O)C2CC2)[C@@H](CO)O1)c1cnccn1,-3.0,-3.9
C[C@@H]1CN([C@H](C)CO)C(=O)c2cc(C3=CCCCC3)cnc2O[C@H]1CN(C)C(=O)CN1CCOCC1,13.7,0.6
COCC(=O)Nc1ccc2c(c1)C(=O)N(C)C[C@H](OC)[C@H](C)CN(Cc1cc(F)ccc1F)[C@@H](C)CO2,-5.0,5.3
COc1ccc2c3c(n(C)c2c1)[C@@H](CO)N(S(C)(=O)=O)CC31CCN(CC2CCCCC2)CC1,-28.4,-25.0
CC(=O)N(C)C[C@@H]1[C@H](c2ccc(-c3ccc(F)cc3)cc2)[C@H](CO)N1C(C)=O,0.5,5.7
CC(C)NC(=O)NC[C@H]1[C@@H](c2ccccc2)[C@@H](CO)N1C(=O)c1ccccc1,10.5,11.4
C[C@H]1CN([C@@H](C)CO)C(=O)c2c(c3ccccc3n2C)-c2ccccc2CO[C@@H]1CN(C)S(=O)(=O)c1cccc(F)c1,?,nt
CCCNC(=O)N1C[C@@H](O)COC[C@H]2O[C@H](CC(=O)N[C@H]3CCN(Cc4ccccc4)C3)CC[C@@H]21,1.1,4.2
O=C(Cc1ccccn1)N1CC(=O)N2[C@@H](CO)[C@H](c3ccc(C#CC4CCCC4)cc3)[C@@H]2C1,-0.7,0.1
C[C@H]1CN([C@@H](C)CO)C(=O)c2cccc(NC(=O)c3ccc(-c4nccs4)cc3)c2O[C@@H]1CN(C)Cc1ccc(Cl)c(Cl)c1,?,nt
Fc1ccc(-c2ccc(C3[C@H]4CNC[C@@H]3N4Cc3ccccn3)cc2)cc1 (stereo partly drawn),-8.7,-3.5
O=C(C[C@H]1C=C[C@H](NC(=O)Cc2cccnc2)[C@@H](CO)O1)NCc1ccc2c(c1)OCO2,4.6,1.5
CN(C)C(=O)c1ccc(-c2ccc3c(c2)[C@H]2[C@H](CCN2C(=O)Cc2ccccn2)[C@@H](CO)N3C)cc1,15.0,9.1
Cc1ccc(S(=O)(=O)N(C)C[C@@H]2OCCCC[C@H](C)Oc3ccc(NS(=O)(=O)c4ccccc4)cc3C(=O)N([C@H](C)CO)C[C@@H]2C)cc1,?,nt
C[C@H](CO)N1C[C@H](C)[C@@H](CN(C)Cc2cccnc2)Oc2cc(/C=C/c3ccccc3)ccc2S1(=O)=O,-30.3,-23.8
CN1CCN(C(=O)c2cc3c(c(-c4cccc(C5=CCCC5)c4)n2)[C@@H](CCO)N([S@](=O)C(C)(C)C)C3)CC1,4.9,25.1

# High-throughput results (PubChem BioAssay)
